Screening results as filed in PubChem BioAssay.
NPYLR7 agonist = mosquito NPYLR7 agonism; HEK293T NPYLR7/Galpha15, GCaMP6s calcium fluorescence; activation, % at 10 µM; actives 0.15% (n = 270,000); in the data active = activation above about 40%;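 note: 0% = vehicle and 100% = reference agonist at the receptor; some compounds past the cut are filed as inactive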
NPYLR7 agonist max-min = second read-out of NPYLR7 agonist, no call of its own (marks repeat the call); activation, %; measured here: Max-Min RFU normalised activation; some inactives read as strong as hits;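 span of the calcium signal over five minutes; 0% = vehicle and 100% = native peptide agonist; compound fluorescence can raise it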
* hit, by the source's call; & = joins results of further samples.

SMILES	NPYLR7 agonist	NPYLR7 agonist max-min
C=CCN(CC=C)C(=O)CSc1nnc(Nc2ccc(C(C)C)cc2)s1	1	3
CCN(C(=O)NCc1ccc2c(c1)OCO2)C(C)c1ccc(C#N)cc1 (centres undefined)	1	0
N#Cc1c(NC(=O)CSc2ncnc3sccc23)sc2c1CCC2	4	2
CCC(C)n1c(C)c(C)n2c3c(=O)n(Cc4ccc(Cl)cc4)c(=O)n(C)c3nc12 (centres undefined)	3	5
Cc1cc2nc(N3CCC(C(=O)NCC4(c5ccccc5)CCOCC4)CC3)nc(C)c2cc1C	21	12
Cc1cccc(NC(=O)COc2cc(C(C)(C)C)nn2-c2nc(C)cc(C)n2)c1	1	11
Cc1cc(NC(=O)Cc2ccccc2O)ccc1N(C)C	7	3
Cc1cc(N)c2ccccc2[n+]1CCCCCCCCCC[n+]1c(C)cc(N)c2ccccc21	-4&1&-2&-5	-4&-3&-3&-20
Cc1noc(C(C)N2CCC(N(C)Cc3noc(C)n3)C2)n1 (centres undefined)	1	-2
O=C(CCC1CCCCC1)NNC(=O)CC12CC3CC(CC(C3)C1)C2	7	8
OC(CNCc1ccc(Cl)c(Cl)c1)CN1CCCCC1 (centres undefined)	1	-1
CC(C)c1cccc(Oc2cnn(-c3ccc(F)cc3)c(=O)c2Nc2ccc(C(=O)N3CCN(C)CC3)cc2)c1	9	6
Cc1ccc(Cn2c(C)c(C(=O)N(C)Cc3ccc(F)cc3)sc2=O)cc1	1	-2
N#Cc1cccc(OC2CC3CCC(C2)N3C(=O)c2ccc(CSc3ccccn3)cc2)c1 (centres undefined)	5	6
Cc1ccc(S(=O)(=O)Nc2ccccc2N2CCCCC2)c(C)c1OCC(=O)O	-3	-5

One compound at a time (already shown).
Cc1ccc(Cn2c(C)c(C(=O)N(C)Cc3ccc(F)cc3)sc2=O)cc1 reads NPYLR7 agonist: 1; NPYLR7 agonist max-min: -2
Cc1cc(NC(=O)Cc2ccccc2O)ccc1N(C)C reads NPYLR7 agonist: 7; NPYLR7 agonist max-min: 3

Additional entries:
SMILES	NPYLR7 agonist	NPYLR7 agonist max-min
CN(C)CCN(Cc1ccccc1)C(=O)c1ccc(Cl)c(N2CCCC2=O)c1	7	6
O=C(NCc1ccccc1N1CCCC1)N1CCCC1c1ccccn1 (centres undefined)	-2	-2
CC1(C)CC(=O)c2sc(NC(=O)C(C)(C)C)nc2C1	8	-1
COCCN1CCc2[nH]c(=S)[nH]c(=O)c2C1	-6	-7
O=C(CN1CCCCCC1=O)NCc1cccnc1Oc1ccccc1F	2	0
COc1ccc(OC)c(C(=O)c2ccc(C(=O)N3CCc4c(cnc(C)c4CNC(C)=O)C3)cc2)c1	20	3
Cc1ccc(C2=NN(C(=O)Cn3nc(C)c(C)c(C#N)c3=O)C(c3ccco3)C2)o1 (centres undefined)	2	0
CC(C)c1ccc(Nc2ncc3c(n2)CCN(C(=O)Nc2cccc(F)c2)C3)cc1	-8	-10
COc1ccccc1C1c2cccn2CCCN1Cc1ccc(F)cc1 (centres undefined)	-5	20
CCC(C)NCc1ccc(OC)c(OC)c1 (centres undefined)	26	15
CC(C)(C)NC(=O)N1CCC(C(NC(=O)c2ccc(F)cc2)C(=O)NCc2ccco2)CC1 (centres undefined)	-1	-1
CCc1ccc(C(=O)Nc2c(-c3ccc(OC)c(OC)c3)nc3ccc(C)cn23)cc1	-4	1
O=C(NCc1ccccn1)c1nn(-c2ccc(F)cc2)c(=O)n(Cc2ccccc2Cl)c1=O	8	10
O=C1C=CC(=O)C2=C1C1c3ccccc3C2c2ccccc21	-4	-9
Cc1ccc(C2c3cccn3CCN2C(=O)Nc2cccs2)cc1 (centres undefined)	15	8
Cc1cccnc1CC(C)NC(=O)c1coc(COc2cccc(F)c2)n1 (centres undefined)	17	6
CN(C)S(=O)(=O)c1ccc(S(=O)(=O)N2CCCCC2)cc1	3	2
CCOC(=O)N1CCN(C(=O)CCc2cc3c(n2-c2cc(OC)cc(OC)c2)-c2ccccc2CC3)CC1	13	9
CCS(=O)(=O)NC(=O)C1(C)CCN1C(=O)Cc1ccc(-c2ccccc2)cc1 (centres undefined)	4	2
Cc1oc(C(C)(C)C)cc1C(=O)N1CCN(C(c2ccccc2)c2ccc(F)cc2)CC1 (centres undefined)	5	2
CC(C)n1c(C2CC(=O)N(c3ccc(F)cc3)C2)nc2ccccc21 (centres undefined)	1	-4
Nc1c(C(=O)NCc2cccs2)c2nc3ccccc3nc2n1/N=C\c1ccncc1	10	-1
CCOC(CNCc1ccco1)OCC	2	1
Cc1ccccc1N1CCC(N2CCCN(C(=O)C3CCC3)CC2)CC1	6	4
Cc1c(C(=O)NC2CC2)sc(=O)n1CC(=O)N(C)C	16	10
CNC(=S)Nc1ccc(Oc2ccc(NC(=S)NC)cc2)cc1	-2	-2
CC(=O)C(C)n1c(CN2CCN(Cc3ccccc3)CC2)nc2c1c(=O)[nH]c(=O)n2C (centres undefined)	0	36
COc1ccc(NC(=O)c2cc3cc(Br)ccc3oc2=O)cc1	-4	-17
CC(=O)Nc1ccc(N2C(=O)CSC2c2ccc3c(c2)OCO3)cc1 (centres undefined)	-3	-10
CN1C[C@@H](N)C[C@H]1C(=O)NCC1CCN(CCc2ccccc2)CC1	0	-12
CC(C)COC1CCN(C(=O)C2CCN(C)C(=O)C2)CC1 (centres undefined)	5	5
O=C(NCCNc1nc(-c2ccc(F)cc2)nc2ccccc12)c1ccco1	1	4
CN(C)C(CNC(=O)c1ccc(-n2cc[nH]c2=S)cc1)Cc1ccccc1 (centres undefined)	-6	-7
COc1ccccc1-c1ccc(C(=O)N2CCN(C)CC2)c(N2CCOCC2)n1	6	-1
Cc1ccc(C)c(NC(=O)CN2C(=O)c3ccccc3S2(=O)=O)c1	2	0
CN(CC1CCN(CCc2ccc(Cl)cc2)CC1)C(=O)c1ccc(C(F)(F)F)cc1	-4	-6
CNc1cncc(-c2ccccc2O)n1	3	0
Cc1ccc(-c2nc3cc(Cl)ccc3o2)cc1NC(=O)c1ccccc1	-2	-6
CCn1c(C2CCN(C(=O)c3cnc(C)cn3)CC2)nn(C)c1=O	20	11
CCCCC(O)CN1CCc2nc(Cc3ccccc3OC)[nH]c(=O)c2C1 (centres undefined)	-4	6
CN(C)C(CNC(=O)N1CCCC(c2nncn2C)C1)c1ccco1 (centres undefined)	-2	-10
C=CCN1C(=O)CC2(C1=O)C(=O)N(CCCCOc1ccccc1)c1ccc(Cl)cc12 (centres undefined)	-15	-15
CC(C)CCN(Cc1cccn1Cc1ccccc1)CC(C)O (centres undefined)	23	30
CCN1CC(C)C(NS(=O)(=O)c2ccc3c(c2)COC3)C1 (centres undefined)	-21	-25
Cc1cnn(C(C)CNC(=O)c2cc(Cn3ccc4ccccc43)[nH]n2)c1 (centres undefined)	1	0

The closing six compounds of the section above are carried over, then new ones follow.
SMILES	NPYLR7 agonist	NPYLR7 agonist max-min
CCCCC(O)CN1CCc2nc(Cc3ccccc3OC)[nH]c(=O)c2C1 (centres undefined)	-4	6
CN(C)C(CNC(=O)N1CCCC(c2nncn2C)C1)c1ccco1 (centres undefined)	-2	-10
C=CCN1C(=O)CC2(C1=O)C(=O)N(CCCCOc1ccccc1)c1ccc(Cl)cc12 (centres undefined)	-15	-15
CC(C)CCN(Cc1cccn1Cc1ccccc1)CC(C)O (centres undefined)	23	30
CCN1CC(C)C(NS(=O)(=O)c2ccc3c(c2)COC3)C1 (centres undefined)	-21	-25
Cc1cnn(C(C)CNC(=O)c2cc(Cn3ccc4ccccc43)[nH]n2)c1 (centres undefined)	1	0
O=c1cc(CSc2nnc(-c3cccnc3)o2)nc2sccn12	0	4
Cn1c(=O)c2c(nc(CN3CCN(c4ccccc4)CC3)n2CCCO)n(C)c1=O	0	0
CCCC(=O)Nc1c(-c2cc(C)cc(C)c2)nc2ccccn12	-1	6
O=C(O)Cc1ccc(NC(=O)c2cccc(Br)c2)cc1	6	2
O=C(c1ccccc1Cl)N1CCCC(OCCOc2ccccc2)C1 (centres undefined)	-1	7
CC(Cc1cccs1)NC(=O)c1cc(Cl)c2c(c1)OCO2 (centres undefined)	11	9
Cc1ccc2nc(CSc3nnnn3C3CC3)cn2c1	0	3
CC(SC(F)(F)F)C(=O)NCc1nnc2ccccn12 (centres undefined)	-1	-1
CC(C)OCCCNC(=O)c1ccc(-c2ccc(Oc3ccccc3)cc2)s1	3	0
CCOc1ccc(-n2c(O)c(C3=c4ccccc4=NC3=O)sc2=O)cc1	-3	-7
Cc1ccc(/C=C/S(=O)(=O)N2CCN(c3ccc4nncn4n3)CC2)cc1	1	6
CCOC(=O)Nc1ccc2c(c1)N(C(=O)CNC(C)(C)C)c1ccccc1CC2	-2	-8
Cc1ccc(C)c(S(=O)(=O)CCSc2nnnn2C2CC2)c1	10	4
CCc1cc2c(SCc3cc(=O)n4cc(Br)ccc4n3)ncnc2s1	0	-2
COc1cc(Cl)ccc1OCc1cc(C(=O)N(C)CCc2c(C)n[nH]c2C)no1	2	-2
O=C1C(O)=CC2(c3cccc(Cl)c3Cl)Nc3ccccc3N12 (centres undefined)	1	42
Cc1ccc(C)c(NC(=O)CSc2nc(N)c(NC(=O)c3ccc(C(F)(F)F)cc3)c(=O)[nH]2)c1	0	-1
CCN1CCCn2c1nc1c2c(=O)n(Cc2ccccc2F)c(=O)n1C	-2	-5
CC(=O)Nc1ccc(S(=O)(=O)Nc2nc3ccccc3nc2Nc2cccc(F)c2)cc1	3	-3
Cc1nc(NC(=O)N2CCCC(C(C)(C)O)C2)nn1C (centres undefined)	-5	-8
CSC(C)C(=O)NC(C)(C)c1cccc(F)c1 (centres undefined)	-1	0
COc1cccc(CCC2CCCN(Cc3nccs3)C2)c1 (centres undefined)	5	2
CCO[C@H]1[C@H](NC(=O)CC)c2ccccc2C12CCN(C(=O)c1cc3ccccc3oc1=O)CC2	12	3
O=C(/C=C/c1cn(S(=O)(=O)c2cccc(C(F)(F)F)c2)c2ccccc12)NCCCO	-8	-9
C=CCOc1cccn2c(N(C)C(C)=O)c(CC)nc12	3	-5
CSc1nn(C)c(N)c1C#N	-9	-13
C=CCn1cc(C(=O)Nc2ccc3c(c2)OCCO3)c2nn(-c3ccccc3)c(=O)c-2c1	6	5
CNc1scnc1C(=O)OCc1nc2ccccc2nc1C	-2	5
CCS(=O)(=O)Nc1ccc(C(=O)N[C@@H](C)c2ncccc2C)cc1	6	-2
Cc1ccccc1-c1nnc2ccc(-c3cccc(S(C)(=O)=O)c3)cn12	-3	-8

Random excerpt: 3 compounds from above
SMILES	NPYLR7 agonist	NPYLR7 agonist max-min
O=C(NCCNc1nc(-c2ccc(F)cc2)nc2ccccc12)c1ccco1	1	4
CNc1scnc1C(=O)OCc1nc2ccccc2nc1C	-2	5
CNC(=S)Nc1ccc(Oc2ccc(NC(=S)NC)cc2)cc1	-2	-2

More structures follow.
SMILES	NPYLR7 agonist	NPYLR7 agonist max-min
Cc1cccc(C2=NOC(C)C(=O)N2Cc2ccncc2)c1 (centres undefined)	4	1
Cc1ccc2ccccc2c1CN(C)CCC(O)c1ccccc1 (centres undefined)	-3	-5
C=CCn1nc(C(=O)N2CCCCCC2)c2c1CCC(N(C)Cc1ccco1)C2 (centres undefined)	24	12
COc1cc(N2CCC(C(=O)NCc3ccccn3)CC2)ncn1	3	1
CCCCCN1CCN(c2nc3c(c(=O)[nH]c(=O)n3C)n2Cc2ccccc2F)CC1	5	0
COc1ccccc1C1CC1NC(=O)C(=O)Nc1cccc(F)c1F (centres undefined)	-8	-10
Cc1ccc(C)c(Cn2c(N3CCN(Cc4ccc(Cl)cc4)CC3)nc3c2c(=O)[nH]c(=O)n3C)c1	18	9
Cc1ccc(CNC(=O)CN(C(=O)N2CCN(C)CC2)S(=O)(=O)c2ccc(C)cc2)cc1	11	9
COC(=O)C1C(c2ccc(F)cc2)c2c([nH][nH]c2=O)CC1(C)O (centres undefined)	2	33
COc1ccc(COn2c(=O)c(-c3ccc(OC)cc3OC)[n+]([O-])c3ccccc32)cc1	-11	-13
Cc1cc(C(=O)Nn2cnnc2)cs1	21	19
O=C(Nc1ccnn1C1CCN(C(=O)Cc2c(F)cc(F)cc2F)CC1)C1CCOC1 (centres undefined)	-3	-8
CCc1nn(-c2cccc(F)c2)c(CC)c1C(=O)NCc1ccccn1	13	24
CCCCCCCC(=O)N(CC(=O)c1c(C)c(C(=O)OCC)n(C)c1C)C1CC1	19	21
Cc1cc(C)n(C(C)CNC(=O)CC(=O)Nc2cc(Cl)ccc2C)n1 (centres undefined)	-10	-12
COc1ccc(CCN2CCN(C(C)c3nnc(CC(C)C)o3)CC2)cc1 (centres undefined)	3	1
NC(=O)CSc1cn(Cc2ccccc2)c2ccccc12	4	-1
COc1ccc(OC)c2sc(N(CCN3CCOCC3)C(=O)c3ccc(Cl)s3)nc12	12	6
COC(=O)CON1C(=O)CN(C(=O)c2ccccc2)C1c1cccc([N+](=O)[O-])c1 (centres undefined)	-1	-2
CN(CCCOc1ccccc1)C(=O)CSCc1ncc[nH]1	4	2
CC(NC(C)c1ccccc1Br)c1nc(N)nc(N(C)C)n1 (centres undefined)	2	3
O=C(Cc1cccs1)NN=CC1CCCCC1	-2	-4
Cc1[nH]c(=O)n(C(C)(C)C)c(=O)c1Br	-5	-5
Cc1ccc(F)cc1NC(=O)Cn1c2ccccc2c(=O)c2ccccc21	0	-6
Cc1csc(CN(C)C(=O)CC(c2ccccc2)c2ccc3c(c2)OCO3)n1 (centres undefined)	4	2
COCCNc1nc(N2CCCCC2)c2cnn(C)c2n1	3	0

An excerpt; count on the stated rates, not on these rows.
